Arbovirus anti = blocks arbovirus infection. hit rate 0.37% among 200,000. inhibition, % at 10 µM. arbovirus infection cell-based antiviral screen. AID 1251;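 active means inhibition from about 30%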;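 further: bluetongue infection of BSR cells; cell survival read as ATP light after 72 h; 0% = infected wells without compound and 100% = uninfected wells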
Mtb betalactam = beta-lactam sensitization of Mtb H37Rv. M. tuberculosis H37Rv growth with meropenem, percent inhibition; hits of this screen are not shown here. inhibition, % at 25 µM. hit rate 0.27% among 330,000. AID 434955;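 active means about 74% or more and at least 40 points above the plate without the antibiotic, then above 30% in a dose series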;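 further: growth measured after seven days incubation then overnight dye step; 0% = bacteria only wells and 100% = bacteria with antibiotic; twin plates without the antibiotic show which effects depend on it; some results filed as inactive read as strong as hits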
YopH PTP inh = YopH (Yersinia) phosphatase inhibition; fluorescence Ex485/Em525; inhibition, %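 (about 10 µM by stock and volumes)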; hit rate 0.16% among 140,000; AID 898;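 active means inhibition of 50% or more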;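 further: controls were vehicle for no effect and minimum signal wells for full effect; inactives centre near -20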
Mtb H37Rv = M. tuberculosis H37Rv growth inhibitors, H37Rv strain (AID 1626). M. tuberculosis H37Rv growth inhibition; higher % means a stronger effect. one-dose inhibition, % at 10 µM; IC50 in µM for titrated hits. hit rate 0.95% among 220,000;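 active means confirmed in a dose series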;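 further: bacteria incubated seven days before Alamar blue readout; 0% = bacteria only wells and 100% = bacteria with antibiotic wells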
RecA splice inh = blocks M. tuberculosis RecA intein splicing; P9WHJ3; cell-free RecA intein splicing, fluorescence; inhibition, %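 (about 9 µM by stock and volumes)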; hit rate 0.75% among 290,000; in the data active means inhibition above about 30%;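 further: 0% = vehicle wells and 100% = reference inhibitor control wells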
Target sequence (P9WHJ3 whole entry, looked up, canonical isoform): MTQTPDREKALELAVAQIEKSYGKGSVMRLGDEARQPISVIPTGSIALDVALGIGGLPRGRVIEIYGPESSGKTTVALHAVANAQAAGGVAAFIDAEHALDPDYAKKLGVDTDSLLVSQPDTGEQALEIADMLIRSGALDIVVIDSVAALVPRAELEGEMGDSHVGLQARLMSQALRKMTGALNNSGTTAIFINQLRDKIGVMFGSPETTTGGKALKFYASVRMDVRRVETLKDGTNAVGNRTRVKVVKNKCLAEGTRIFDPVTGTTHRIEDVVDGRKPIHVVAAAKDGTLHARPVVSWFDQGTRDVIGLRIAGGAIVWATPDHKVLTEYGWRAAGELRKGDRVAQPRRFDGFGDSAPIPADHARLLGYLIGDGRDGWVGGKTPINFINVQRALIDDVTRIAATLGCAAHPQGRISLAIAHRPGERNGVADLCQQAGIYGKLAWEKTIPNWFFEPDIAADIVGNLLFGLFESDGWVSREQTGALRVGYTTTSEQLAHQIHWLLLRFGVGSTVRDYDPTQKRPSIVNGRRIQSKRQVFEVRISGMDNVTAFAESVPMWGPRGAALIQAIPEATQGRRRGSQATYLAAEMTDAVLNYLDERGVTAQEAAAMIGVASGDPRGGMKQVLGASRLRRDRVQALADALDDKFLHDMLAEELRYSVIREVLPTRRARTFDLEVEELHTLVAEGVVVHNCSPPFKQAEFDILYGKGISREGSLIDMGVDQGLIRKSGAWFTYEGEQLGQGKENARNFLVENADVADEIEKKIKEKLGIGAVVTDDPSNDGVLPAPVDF
Arbovirus anti repeat = also measured in Arbovirus anti; calls as there; inhibition, %; measured here: 10K subset replicate screen; many hits read low in the repeat;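 first of two repeat runs on a subset; 0% = infected and 100% = uninfected wells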
* = called active by the depositor; / = not tested or not shown. Only part of the results is shown; count on the stated rates, not on these rows.

SMILES	Arbovirus anti	Mtb betalactam	YopH PTP inh	Mtb H37Rv	RecA splice inh	others
CC(=O)Nc1ccc(C(=O)OC2CCCCC2=O)cc1 (centres undefined)	9	-3	-30	-10%	/
CN(C)S(=O)(=O)N1CCC(Oc2cccc(C(=O)NC3CCCCCC3)c2)CC1	/	0	/	/	-2.4
Cc1nn(C)c(C)c1NC(=O)c1ccccc1NC(=O)Nc1ccccc1	/	-9	/	-2%	0.9
C=C(C)[C@@H]1CC=C(CN2CCN(Cc3ccccc3)CC2)CC1	/	77	/	/	1.0
CCN(C)Cc1c(C(=O)N2CCc3ccccc3C2)nc2ccc(Cl)cn12	2	0	/	4%	1.2
Cc1cc(C)c(OCC(=O)N/N=C/c2ccco2)c(C)c1	-6	-2	-21	1%	0.6
Cn1cc(Br)c(C(=O)Nc2c(F)c(F)c(F)c(F)c2F)n1	-2	4	-37	2%	-0.2
COc1ccc(CNC(=O)C2CCN(S(=O)(=O)c3ccc4c(c3)N(C(C)=O)CCO4)CC2)cc1	/	-4	/	/	-1.9
Cc1ccc(CNS(=O)(=O)c2cn(C)c(=O)n(C)c2=O)cc1	/	-4	/	/	-1.5
Oc1ccccc1C(=S)N1CCCC1	/	-2	/	/	-1.3
COc1ccc(CC(=O)N2CCc3cc(OC)c(OC)cc3C2C)c(OC)c1 (centres undefined)	/	5	/	/	6.9
Cc1c(CCC(=O)O)c(=O)oc2cc(OCc3ccc(Br)cc3)ccc12	/	-1	/	/	0.2
Cc1cccc(CC2CC(=O)N(c3nc4ccccc4s3)C2=O)c1 (centres undefined)	7	1	/	-3%	12
CCOC(=O)c1c(N)c(C#N)nn1-c1ccccc1C(=O)OC	6	/	-17	5%	-1.0
CCOC(=O)C1=NOC2C(=O)N(c3ccc(Cl)cc3Cl)C(=O)C12 (centres undefined)	15	1	/	-14%	-1.2
O=C1NC(=Nc2ccccc2Cl)S/C1=C\c1cccc([N+](=O)[O-])c1O	/	9	/	/	-2.3
O=C(CCC(=O)N(c1cccc(F)c1)C(C(=O)NC1CCCC1)c1ccncc1)Nc1cccnc1 (centres undefined)	2	10	-19	-3%	-4.0
Cn1c(=O)c2c(nc(NCC3CCCO3)n2C)n(C)c1=O (centres undefined)	-1	-1	3	1%	2.2
CC(=O)/C=C/c1ccc2ccccc2n1	-35	100	-141	5.7µM*	-1.1
Cc1cc(C)c(OCC(=O)Nc2cc(C(=O)O)cc(C(=O)O)c2)cc1C	4	2	/	-4%	-0.9

The list goes on; the last 7 above are carried over.
SMILES	Arbovirus anti	Mtb betalactam	YopH PTP inh	Mtb H37Rv	RecA splice inh	others
CCOC(=O)c1c(N)c(C#N)nn1-c1ccccc1C(=O)OC	6	/	-17	5%	-1.0
CCOC(=O)C1=NOC2C(=O)N(c3ccc(Cl)cc3Cl)C(=O)C12 (centres undefined)	15	1	/	-14%	-1.2
O=C1NC(=Nc2ccccc2Cl)S/C1=C\c1cccc([N+](=O)[O-])c1O	/	9	/	/	-2.3
O=C(CCC(=O)N(c1cccc(F)c1)C(C(=O)NC1CCCC1)c1ccncc1)Nc1cccnc1 (centres undefined)	2	10	-19	-3%	-4.0
Cn1c(=O)c2c(nc(NCC3CCCO3)n2C)n(C)c1=O (centres undefined)	-1	-1	3	1%	2.2
CC(=O)/C=C/c1ccc2ccccc2n1	-35	100	-141	5.7µM*	-1.1
Cc1cc(C)c(OCC(=O)Nc2cc(C(=O)O)cc(C(=O)O)c2)cc1C	4	2	/	-4%	-0.9
CCOC(=O)c1ccsc1NC(=O)c1ccco1	/	-7	/	/	0.1
Cc1[nH]c(=O)[nH]c(=O)c1S(=O)(=O)Nc1ccc(F)cc1Cl	/	-7	/	/	-0.2
CCOc1ccc2oc(C(=O)N3CC(C)OC(C)C3)c(C)c2c1 (centres undefined)	/	-11	/	/	-1.4
O=C(Nc1ccncc1)c1cc(S(=O)(=O)N2CCOCC2)ccc1Cl	/	3	/	/	-0.3
CC(=O)N1CCN=C1SCc1ccccc1F	-7	0	-7	8%	/
CN(C)c1ccc(P(=S)(N(C)C)N(C)C)cc1	6	-10	-26	-4%	1.8
O=C(Cc1cccc(C(F)(F)F)c1)NCc1ccc(Cl)cc1Cl	7	8	-20	22%	-0.2
N#CCCN(CCC#N)C(=O)c1ccc2c(c1)OCO2	2	-4	1	-4%	-24
CC(C)(CS(=O)(=O)[O-])NC(=O)CC[N+](C)(C)CCO	20	-14	8	0%	-0.7
COc1ccc(C(C)=O)cc1CSc1nnc(Nc2ccccc2)s1	-5	0	-22	-3%	-0.3
COc1ccc(/C=N/NC(=O)c2cccnc2)cc1COc1ccc([N+](=O)[O-])cc1	/	14	/	3%	-0.7
COc1cc(OC)cc(-c2n[nH]c(=S)n2-c2cc(OC)ccc2OC)c1	2	6	-1	-7%	-0.5
CC(C(=O)Nc1ccc(C(=O)O)c(O)c1)N1C(=O)/C(=C\c2ccco2)SC1=S (centres undefined)	/	57	/	/	0.5
Cc1onc(-c2ccccc2)c1C(=O)NNC(=O)c1ccccc1O	/	-1	/	/	9.1
O=C1CCN(CCc2ccccc2)CCN1CCOc1ccccc1	/	3	/	/	6.5
O=C(O)Cc1c[nH]c2ccc(O)cc12	/	-5	/	-10%	-6.3
O=C(Nc1cccc2ccccc12)c1cnsn1	-6	-10	/	2%	0.6
NS(=O)(=O)c1cnccc1Nc1ccc(Cl)cc1	-6	2	-30	0%	-1.2
CCC(C)C(=O)Nc1nnc(CCc2ccccc2)s1 (centres undefined)	/	-1	/	/	0.5
NC(=O)N=Nc1c(O)[nH]c2ccc([N+](=O)[O-])cc12	/	-6	/	3%	1.9
S=C(CN1CCCC1=S)NCCc1ccccc1	/	-5	/	1%	/
CCCCCn1c(=O)c(C(=O)Nc2nc3ccccc3[nH]2)c(O)c2ccccc21	/	99	/	0.71µM*	-2.7
O=C(NCc1ccco1)C1CCCN(S(=O)(=O)Cc2ccccc2)C1 (centres undefined)	19	-11	-24	5%	0.9
Cc1cc(C)cc(NC(=O)c2ccc(CSc3nnc(C)s3)cc2)c1	-14	97	-27	48%	-0.4
O=C(Nc1c2c(nn1-c1ccccc1)CS(=O)(=O)C2)c1cc2ccccc2o1	/	4	/	/	1.9
CC1CN(Cc2c(O)ccc3c(=O)c(-c4ccccc4Cl)coc23)CC(C)O1 (centres undefined)	/	-2	/	/	-1.3
C=CCn1c(-c2csc(-c3ccc(Cl)cc3)n2)n[nH]c1=S	-4	2	-3	3%	1.7
COc1cccc(-c2nnc(N(C)C(=O)c3ccno3)s2)c1	7	/	-8	-2%	-1.0
O=c1[nH]c(=S)[nH]cc1S(=O)(=O)c1cccc(Cl)c1	/	1	/	/	-4.4
Cn1c(CNC(=O)c2ccccc2F)nnc1SCC(=O)N1CCN(c2ccccc2)CC1	-1	1	/	6%	0.4
CC(=O)NC(c1ccccc1)c1cc(Cl)c2cccnc2c1O (centres undefined)	/	-1	/	/	3.8
CC(/C=C/c1ccccc1)=N\NC(=O)C1CC1(C)c1ccccc1 (centres undefined)	-3	40	-23	-5%	3.6
COc1ccc(C(=O)Nc2ccccc2C(=O)NC(Cc2ccc(O)cc2)C(=O)NNC(=O)c2ccncc2)cc1 (centres undefined)	3	-10	/	-4%	4.7
COc1ccc(OCC(O)CON2C(=O)c3ccccc3C2=O)cc1 (centres undefined)	-3	2	-13	-7%	0.8
COc1cc(-c2nnn(Cc3ccccc3C)n2)cc(OC)c1OC	/	0	/	/	-0.1
Cc1cccc2c1N(CCOc1ccccc1Cl)C(=O)C2=O	-9	0	-9	1%	0.9
CS(=O)(=O)N(CC(O)Cn1c2ccccc2c2ccccc21)c1ccccc1 (centres undefined)	42*	-6	-20	0%	4.8
CC1=NN(c2ccccc2)C(=O)/C1=C\c1cc(C)n(-c2ccccc2)c1C	1	-3	-6	1%	0.3
O=CN1CCN(C(C(=O)NC2CCCC2)c2ccc(Cl)cc2)CC1 (centres undefined)	14	-10	-28	-2%	0.7	Arbovirus anti repeat=-1
Cc1sc(NC(=O)CN(C)C2CCCCC2)nc1-c1ccc2c(c1)CCN2S(=O)(=O)c1ccccc1	-3	6	-4	/	4.4
CC1CCCCN1C(=O)CSc1nc(-c2ccccc2)cn1N (centres undefined)	12	-8	/	-1%	5.0
CCOC(=O)C1(Cc2ccccc2C(F)(F)F)CCN(C(=O)c2cc(C)n(C)n2)CC1	-6	-4	/	-2%	2.7
Cc1ccc(S(=O)(=O)N2CCOCC2)cc1N/N=C(\C#N)c1nc2ccccc2[nH]1	-2	36	16	26%	3.2
COc1ccc2cc(/C(C)=N/NC(=O)c3cc(-c4cccnc4)nc4ccccc34)ccc2c1	-13	1	-11	3%	-1.9
COc1ccc(Cl)cc1NC(=O)C[n+]1ccccc1	/	-2	/	/	0.4
COc1ccccc1CNC(=S)NC1CCCCC1	24	12	/	-1%	4.9
Nc1ccc(Oc2ncccn2)cc1	/	4	/	/	51*
Cc1occc1C(=O)N/N=C/C=C/c1ccccc1[N+](=O)[O-]	1	-3	/	-3%	/
Cc1ccc(NC(=O)CCCn2nc(C)c3c(C)n(-c4ccccc4)nc3c2=O)cc1C	/	11	/	/	-0.3
COc1ccc(C(=O)N/N=C(\C)c2cccc(NC(=O)c3ccc(F)cc3)c2)c(OC)c1	/	3	/	/	0.3
CC(C)CCn1c(COc2ccccc2)n[nH]c1=S	-1	1	/	-5%	0.2
CCC(Sc1nc2n[nH]c(C)c2c(=N)n1-c1cccc(Cl)c1C)C(=O)N(CC)CC (centres undefined)	-17	-11	-10	4%	-1.9
CC1=CC(C)(C)N2C(=O)C3(C(C#N)=C(N)OC4=C3C(=O)CCC4)c3c(C)c(C)cc1c32 (centres undefined)	5	-13	-15	-7%	-2.8
CCC(CC)C(=O)OCC(=O)NC12CC3CC(CC(C3)C1)C2	-1	64	-13	0%	2.5
CCCCNC(=O)CC1N=C2c3ccccc3N=C(SCC(=O)Nc3cccc(OC)c3)N2C1=O (centres undefined)	-9	3	-12	-2%	3.3
O=C1c2ccccc2C(=O)N1CSc1nnc2c3ccccc3n(CCc3ccccc3)c2n1	6	-5	-18	28%	2.7
S=c1nc[nH]c2c1ncn2C1CCCC1	/	9	/	-7%	-0.4
Cn1nc(C(=O)Oc2cc(=O)n(C)c3ccccc23)c2ccccc2c1=O	8	2	/	2%	-1.5
CCCCNC(=O)C(=O)NCC1CCCN1S(=O)(=O)c1cccs1 (centres undefined)	/	-11	/	/	2.0
C/C(=N\NC(=S)Nc1ccccc1)C1Cc2ccccc2C(=O)O1 (centres undefined)	/	0	/	-4%	-2.4

Next section
SMILES	Arbovirus anti	Mtb betalactam	YopH PTP inh	Mtb H37Rv	RecA splice inh	others
CCCCc1nc(NCCN)c(C#N)c2c1CSC(C)(C)C2	-38	7	6	1%	18
Cc1ccc(-c2csc3ncn(C(C)C(=O)O)c(=O)c23)cc1 (centres undefined)	/	-10	/	/	0.1
COCCN(CCOC)S(=O)(=O)c1ccc(C(=O)Nc2ccncc2)cc1	/	2	/	/	0.7
O=C1C2CCCCN2C(=O)N1CCCCN1CCN(c2ccc([N+](=O)[O-])cc2)CC1 (centres undefined)	11	-8	-3	5%	2.3
O=S(=O)(c1ccc(F)cc1)N1CCN(c2ccccn2)CC1	-5	-5	/	1%	-3.0
Cc1cccc(C(=O)NC2CCCCCCC2)c1	/	-3	/	/	2.2
CCn1c(=O)c2c(nc(SCC(=O)NC3CCCC3)n2C)n(C)c1=O	/	-7	/	/	0.8
CCOc1cc(C)c(S(=O)(=O)NCc2ccccn2)cc1C	/	-12	/	/	0.7
COCC(=O)N1CCC(Oc2ccc(C(=O)NCCc3ccncc3)cc2)CC1	0	-2	/	-4%	-0.3
S=c1[nH]nc(-c2ccc(Cl)cc2Cl)n1-c1ccc2c(c1)OCCO2	/	0	/	1%	1.2
Cn1c(C(=O)NCCc2ccsc2)cc2c(=O)n(C)c3ccccc3c21	-8	-4	-10	-3%	0.0	Arbovirus anti repeat=-8
CCOC(=O)/C(C#N)=C1\SS/C(=C(/C#N)C(=O)OCC)S1	/	50	/	/	0.8
COc1cccc(NC(=O)CC2COc3ccccc3O2)c1 (centres undefined)	4	-9	-20	-10%	2.0
C=CCN1CCc2nc(N)sc2CC1	11	/	-31	-5%	/
COc1ccc(Cl)cc1NC(=O)CN(C)C(=O)c1ccc(N2CCCCCC2)c([N+](=O)[O-])c1	/	86	/	/	2.9
O=C(O)CN(c1ccc(F)cc1)S(=O)(=O)c1ccc2c(c1)OCCO2	-1	10	-30	-9%	-2.9

An excerpt from above in order of count of non-hydrogen atoms, rising.
SMILES	Arbovirus anti	Mtb betalactam	YopH PTP inh	Mtb H37Rv	RecA splice inh	others
CCOC(=O)/C(C#N)=C1\SS/C(=C(/C#N)C(=O)OCC)S1	/	50	/	/	0.8
COc1cccc(NC(=O)CC2COc3ccccc3O2)c1 (centres undefined)	4	-9	-20	-10%	2.0
COCC(=O)N1CCC(Oc2ccc(C(=O)NCCc3ccncc3)cc2)CC1	0	-2	/	-4%	-0.3
O=C1C2CCCCN2C(=O)N1CCCCN1CCN(c2ccc([N+](=O)[O-])cc2)CC1 (centres undefined)	11	-8	-3	5%	2.3
